# TsaE inh – YjeE (TsaE) inhibition, E. coli; P0AF67; purified YjeE, fluorescence polarisation of a bound ADP probe; Potency, µM; 71,000 compounds, 0.05% hits; AID 605; active = well fitted falling curve; inconclusive = weaker or top-dose-only fall, or a rising curve; inactive = flat or poorly fitted curve;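 further: top concentration of the series not given in the record; excess ADP was the control for the full effect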
#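 Fluorescence polarization of a BODIPY Texas Red–ADP probe (2 uM) bound to purified YjeE (10 uM) was read after 15 min room-temperature incubation with compounds. Loss of polarization marks inhibitors; ADP serves as titrated control.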
# PK Bst – modulators of Bacillus stearothermophilus pyruvate kinase; partly purified Bacillus stearothermophilus pyruvate kinase, luminescence ATP production; ribose 5-phosphate activator present at AC10; Potency, µM; 51,000 compounds, 1.2% hits; in the data active means potency below about 11 µM; inconclusive means mostly about 12 µM to 25 µM; inactive means weaker than that;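 the screen sought inhibitors and activators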;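 further: potency means the concentration at half of the fitted maximal effect; scaled between full activation by ribose 5 phosphate and full inhibition by luteolin; about four in five hits inhibit and the cells do not say which; series up to 57 µM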
# * marks the source's active call; other numbers are inactive results; i = inactive; / = not tested or not shown; & = joins results of further samples.
SMILES,TsaE inh,PK Bst
COc1ccc(OC)c(Nc2nc(-c3sc(N)nc3C)cs2)c1,i,/
Cc1ccsc1C(=O)OCc1csc(-c2ccccc2)n1,i,7.1*
c1ccc2nc3c(nc2c1)CCc1nonc1-3,i,>57
CCCOc1ccc(Cc2nn[nH]n2)cc1,/,>26
NCCCCCNC(=O)/C=N\O,i,>57
N[C@@H](CSS(=O)(=O)O)C(=O)O,i,/
COc1ccccc1N1CCN(CC(O)COc2cccc3ccccc23)CC1 (configuration not stated),/,>26
CCc1nc(SCC(=O)c2cc(C)ccc2C)n[nH]1,i,/
CCC(=O)N1CCc2cc(S(=O)(=O)N3CCc4ccccc4C3)ccc21,i,>57
N#Cc1nc(COc2ccccc2F)oc1NCCCn1ccnc1,/,>26
Cc1[nH]c(=O)[nH]c(=O)c1CSc1nnc([C@H](CC(C)C)NC(=O)OC(C)(C)C)o1,i,>57
CN(c1ccc(F)cc1)S(=O)(=O)c1ccc2[nH]cc(C(=O)O)c(=O)c2c1,i,>57
Nc1c(C2=NCCO2)nnn1Cc1ccccc1,i,>57
N#Cc1nc(-c2ccco2)oc1N1CCN(Cc2ccccc2)CC1,i,>57
O=C1CCCCC(=O)N(c2ccccc2)c2ccccc21,i,/
O=C(CN1CCN(c2ccccn2)CC1)NC1CCCC1,i,>57
O=C(Nc1nsc(-c2ccccc2)n1)c1cccs1,i,7.8*
COc1ccccc1N1CCN(C(c2ccc(F)cc2)c2nnnn2C(C)C)CC1 (configuration not stated),i,>57
CCN1C(=O)CC(n2c(C)nc3ccccc32)C1=O (configuration not stated),i,>57
O=C(CSc1nnc2scc(-c3ccccc3)n12)Nc1nsc(-c2ccccc2)n1,i,>57
CC(=O)Oc1ccc(NC(=O)Cc2ccccc2)cc1,i,>57
Cc1ccccc1-c1nc(CS(=O)(=O)CC(=O)NCc2ccc3c(c2)OCO3)c(C)o1,i,/
CN(C)c1oc(COc2ccccc2F)nc1C#N,i,>57
COc1ccc(-c2cc3ccccc3n2CC(O)CN2CCOCC2)cc1 (configuration not stated),i,/
CCOc1ccccc1NC=C1C(=O)OC(C)(C)OC1=O,i,>57
O=C(NC1CC1)c1cccc(Nc2ccc(-c3ccc4c(c3)OCCO4)nn2)c1,i,1.5*
COc1ccc(CN2C(=O)CN=C2Nc2ccc(C)cc2C)cc1,i,>57
CCOC(=O)Nc1nnc(-c2cccc(OC)c2)s1,i,/
COc1ccc(C(C)=O)cc1COC(=O)Cn1cnc2ccccc2c1=O,i,>57
C=CCNc1ncnc2ccc(Br)cc12,i,/
Cn1cccc1C(=S)N=P(C1CCCCC1)(N1CCOCC1)N1CCOCC1,i,>57
COc1cc(C(=O)Nc2ccc(NC(=O)c3ccco3)nc2)cc(OC)c1OC,i,>57
Cc1ccccc1Oc1ccc(S(=O)(=O)NCCC(=O)O)cc1,i,/
O=C(NCCN1CCCC1=O)Nc1ccccc1,i,>57
CCCNc1nc2c(c(=O)[nH]c(=O)n2C)n1CCCc1ccccc1,i,>57
COCCCN1C(=O)C(=O)/C(=C(/O)c2ccc3c(c2)OCCO3)C1c1ccc(C(=O)OC)cc1 (configuration not stated),i,>57
CN1CC=C2C(C#N)=C(N)C(C#N)(C#N)C(c3cccc(Cl)c3Cl)C2C1 (configuration not stated),i,>57
Cc1ccc(OCc2nn3c(-c4ccco4)nnc3s2)cc1,i,/
CNc1oc(-c2ccc(Cl)cc2)nc1C#N,/,3.1*
COc1ccc2nc3sc(C(=O)NCc4cccs4)c(N)c3cc2c1,i,i
Cc1ccc(N2CC(C(=O)Nc3ccccn3)CC2=O)cc1 (configuration not stated),i,>57
Cc1cc(-c2ccco2)n(CC(=O)NCc2ccco2)n1,i,/
CCC(C)NC(=O)C1CN(S(=O)(=O)c2ccccc2)CCN1S(=O)(=O)c1ccccc1 (configuration not stated),i,/
CC1Cc2ccccc2N1C(=O)c1ccnc(C(C)(C)C)c1 (configuration not stated),i,>57
CO[C@]1(NC(=O)[C@H](C(=O)O)c2ccc(O)cc2)C(=O)N2C(C(=O)O)=C(CSc3nnnn3C)CO[C@H]21,i,/
COc1ccc(C(=O)NC(C(=O)NCc2ccccn2)C(C)C)cc1 (configuration not stated),i,>57
Cc1cc(/C=C\c2ccc3cc(N(C)C)ccc3[n+]2C)c(C)n1-c1ccccc1,i,/
COC(=O)c1ccc(-c2ccc(C(=O)N3CCCN(C)CC3)cc2)cc1,i,>57
COc1cc(C2Nc3cc(Cl)c(S(N)(=O)=O)cc3S(=O)(=O)N2)cc(OC)c1OC (configuration not stated),i,/
CCOCCc1nnc(NC(=O)c2cc(OC)c(OC)c(OC)c2)s1,i,>57
Cc1cc(NS(=O)(=O)c2ccc(Cl)cc2)nn1CC(=O)NCc1ccco1,i,>57
O=C(Cn1cccc1C(=O)c1ccccc1)NCc1cccnc1,i,>57
CC1CCCC(C)N1C(=O)Cn1c(=O)sc2ccccc21 (configuration not stated),i,/
CCn1c(SC)nnc1-c1sc2cc(Cl)ccc2c1Cl,i,>57
C=C(C)CN1C(=O)C(O)(CC(=O)c2ccc3c(c2)OCCO3)c2ccccc21 (configuration not stated),i,>57
O=C(CSc1nnc(-c2cccnc2)n1Cc1ccccc1)NCc1ccco1,i,>57
O=C(CSc1nc2ccc([N+](=O)[O-])cc2s1)c1ccc2ccccc2c1,i,/
C[N+]12CCC(CC1)C(OC(=O)C(O)(c1ccccc1)c1ccccc1)C2 (configuration not stated),/,>26
O=C(Oc1ccnc2cc(Cl)ccc12)N1CCOCC1,i,/
Cc1ccc2c(COn3nnc4ccc(S(=O)(=O)N(C)C)cc43)cc(=O)oc2c1C,i,>57
# The listing continues:
SMILES,TsaE inh,PK Bst
C=C1C[C@@]23C[C@]1(O)CC[C@@H]2[C@]12C=C[C@@H](O)[C@](C)(C(=O)O1)[C@H]2[C@H]3C(=O)O,i,/
CO[C@@H]1C=CO[C@]2(C)Oc3c(C)c(O)c4c(O)c(c(C=NN5CCN(C)CC5)c(O)c4c3C2=O)NC(=O)C(C)=CC=C[C@H](C)[C@H](O)[C@H](C)[C@H](O)[C@H](C)[C@H](OC(C)=O)[C@H]1C,i,/
COc1ccc2c(C)cc(=O)oc2c1C,i,/
CCn1c(NCc2ccc(N(C)C)cc2)nc2ccccc21,i,>57
CCOc1c(Cl)cc(C(=O)NCCN2CCCCC2)cc1Cl,i,>57
CCCCNC(=O)CC(NS(=O)(=O)c1ccc(C)cc1)c1ccco1 (configuration not stated),i,>57
Cc1ccc(-c2noc(C3CCCN(C(=O)c4ccc(F)cc4F)C3)n2)cc1 (configuration not stated),i,>57
Cc1c(S(=O)(=O)Nc2cc(Cl)ccc2Cl)c(=O)n(C)c(=O)n1C,i,/
COc1ccc(CC(=O)NC2CCN(CC(=O)N3CCCc4ccccc43)CC2)cc1OC,i,>57
CCCCCC1CC(CC#CCN2CCOCC2)C(=O)O1 (configuration not stated),/,>26
CC(=NCc1cccnc1)C1=C(O)c2ccccc2C1=O,i,/
COC(=O)CC1Oc2ccccc2N(Cc2ccccc2)C1=O (configuration not stated),i,/
O=C(CSc1ncn[nH]1)Nc1nnc(-c2ccccc2)s1,i,/
O=C(COC(=O)C1CC2C=CC1C2)NCc1ccco1 (configuration not stated),i,>57
CC(=O)O[C@H]1CC[C@@]2(C)C(=CC[C@@H]3[C@@H]4CC[C@H](c5cc(C(F)(F)F)n(C(C)=O)n5)[C@]4(C)CC[C@@H]32)C1,i,/

# Among those listed so far, 6 contain an NH in an aromatic ring:
SMILES,TsaE inh,PK Bst
CCCOc1ccc(Cc2nn[nH]n2)cc1,/,>26
CCc1nc(SCC(=O)c2cc(C)ccc2C)n[nH]1,i,/
Cc1[nH]c(=O)[nH]c(=O)c1CSc1nnc([C@H](CC(C)C)NC(=O)OC(C)(C)C)o1,i,>57
CN(c1ccc(F)cc1)S(=O)(=O)c1ccc2[nH]cc(C(=O)O)c(=O)c2c1,i,>57
CCCNc1nc2c(c(=O)[nH]c(=O)n2C)n1CCCc1ccccc1,i,>57
O=C(CSc1ncn[nH]1)Nc1nnc(-c2ccccc2)s1,i,/

# Following part:
SMILES,TsaE inh,PK Bst
O=C(O)CCC1COc2ccccc2O1 (configuration not stated),i,>57
Cn1cc(-c2nc3cnc(N4CCNCC4)nc3n(Cc3ccc(F)cc3)c2=O)c2ccccc21,i,/
O=S(=O)(c1ccc(OCC(O)CN2CCN(c3ccc(F)cc3)CC2)cc1)N1CCOCC1 (configuration not stated),i,>57
COC(=O)[C@@H]1[C@H]2C[C@H]3c4[nH]c5cc(OC)ccc5c4CCN3C[C@@H]2C[C@@H](OC(=O)c2cc(OC)c(OC)c(OC)c2)[C@@H]1OC,i,/
Cn1cccc1C(=O)N1CCC[C@@]2(CCN(Cc3nccs3)C2)C1,i,/
FC(F)(F)c1ccccc1-c1ccc2ncnc(NC3CCNCC3)c2c1,i,/
Cn1ccnc1SCC(=O)c1cc2ccccc2o1,i,>57
Cc1nc2cc(N3CCCCC3)c(NC(=O)c3cccnc3)cc2c(=O)n1Cc1ccccc1,i,>57
COc1ccc(C2CC(c3ccc(Cl)cc3)n3nc(N)nc3N2)cc1 (configuration not stated),i,/
CCCCCCCCCC[Si](C)(C)CCC(=O)N[C@@H](Cc1ccc(C)cc1)c1ccccc1,i,/
Cc1ccc(-n2nc3c(c2NC(=O)C(C)(C)C)CSC3)c(C)c1,i,>57
O=C(CCCOc1ccc(Cl)cc1Cl)N1CCN(c2ccccn2)CC1,i,>57
O=C(O)c1cc2cc(F)ccc2[nH]1,i,>57&>26
CC1CN(C(=O)CN2C(=O)NC3(CCCCCCC3)C2=O)CC(C)O1 (configuration not stated),i,>57
COc1cc(OC)c2c(C)cc(=O)oc2c1,i,>57

# Printed as active in PK Bst, of those listed so far:
SMILES,TsaE inh,PK Bst
Cc1ccsc1C(=O)OCc1csc(-c2ccccc2)n1,i,7.1*
O=C(Nc1nsc(-c2ccccc2)n1)c1cccs1,i,7.8*
O=C(NC1CC1)c1cccc(Nc2ccc(-c3ccc4c(c3)OCCO4)nn2)c1,i,1.5*
CNc1oc(-c2ccc(Cl)cc2)nc1C#N,/,3.1*

# Entries of single compounds, quoted from the list. Order of screens: TsaE inh | PK Bst
# `FC(F)(F)c1ccccc1-c1ccc2ncnc(NC3CCNCC3)c2c1` across the screens: i | /
# `Cn1ccnc1SCC(=O)c1cc2ccccc2o1` across the screens: i | >57
# `COC(=O)[C@@H]1[C@H]2C[C@H]3c4[nH]c5cc(OC)ccc5c4CCN3C[C@@H]2C[C@@H](OC(=O)c2cc(OC)c(OC)c(OC)c2)[C@@H]1OC` across the screens: i | /

# Continued.
SMILES,TsaE inh,PK Bst
COc1ccccc1NS(=O)(=O)c1ccc(O)c(C(N)=O)c1,i,>57
COc1ccc(/C=C/C(O)=C2/C(=O)N(C)C3(C)CC2c2ccccc2O3)cc1 (configuration not stated),i,>57
COc1ccccc1-c1nc(C#N)c(N2CCN(c3cccc(Cl)c3)CC2)o1,i,>57
COc1cccc(-c2nc(NC(C)C)c3ccccc3n2)c1O,/,>26
COC(=O)c1nn(-c2ccc(-c3ccccc3)cc2)cc1O,i,/
Cc1occc1-c1nnc(SCCCC(=O)c2ccc(F)cc2)n1C,i,>57
COc1ccc(C(=O)OC(C)CN2CCOCC2)cc1OC (configuration not stated),i,>57
Cc1cc(C)nc(SCc2nnc(SCC(=O)Nc3ncc(C)s3)n2Cc2ccco2)n1,i,>57
Cc1cc(C)nc(N(C#N)CC(=O)c2ccccc2)n1,i,/
O=C(Nc1ccc2c(c1)OCO2)C1CCCCN1S(=O)(=O)c1ccc(F)cc1 (configuration not stated),i,>57
CC(C)n1nnnc1C(c1ccc(F)cc1)N1CCN(C2CCCC2)CC1 (configuration not stated),i,>57
Cc1cc(C)nc(N2CCN(c3ncnc4c3cnn4Cc3ccc(Cl)cc3Cl)CC2)n1,i,>57
OC(COc1ccc2ccccc2c1)CN1CCOCC1 (configuration not stated),i,>57
COCCN(CCOC)c1cc(C)c(C#N)c2nc3ccccc3n12,i,>57
O=C(CSc1nnc(COc2ccccc2)o1)N1CCN(c2ccccc2)CC1,i,>57
CCOc1ccc(CSC(CC(=O)O)C(=O)O)cc1 (configuration not stated),/,>26
COc1ccc(C2C(C(=O)c3ccco3)=C(O)C(=O)N2CCc2ccccc2)cc1OC (configuration not stated),i,>57
CCOC(=O)c1ccc(NCC(O)COc2ccccc2)cc1 (configuration not stated),/,>26
CCc1ccc(NC(=O)Cn2c(=O)n(CCCC(=O)NCc3ccco3)c(=O)c3ccccc32)cc1,i,>57
COCc1ccccc1Cn1cnc2c1c(=O)n(C)c(=O)n2C,i,>57
CCOc1cc2[nH]c(=O)n(CCCCCC(=O)NCc3ccc4c(c3)OCO4)c(=O)c2cc1OCC,i,>57
COc1ccc(NC(=O)N2CC3(CCN(S(C)(=O)=O)CC3)C2)cc1,i,/
O=c1c2cc(Cl)ccc2[nH]c(=S)n1Cc1ccco1,i,>57
O=C(NCc1ccco1)c1cccc(S(=O)(=O)N2CCCCC2)c1,i,>57
COc1ccc(OC)c(CNC(=O)CCc2nc(-c3cccs3)no2)c1,i,/
O=C(c1cccc(F)c1)N1CCC2(CCCN(c3cccc(-c4ccccc4)c3)C2)CC1,i,/
Fc1ccc(CSc2nnc(-c3cccs3)o2)cc1,i,>57
Cc1cccc(OCc2n[nH]c(=S)o2)c1,i,>57
C=CCN(CC=C)c1nc2ccccc2nc1C(C#N)C(=O)OC(C)C (configuration not stated),/,>26
O=C(c1ccc(N2CCCC2=O)cc1)N1CCN(c2ccccc2)CC1,i,>57
COc1ccc(C(=O)COC(=O)CSCc2c(C)noc2C)cc1OC,i,>57
CCCCn1c(=O)[nH]c(=O)c2c1nc(COC(=O)c1c(C)noc1C)n2CCC,i,>57
COC(=O)c1ccc2c(c1)NC(=O)C(N1CCCC1)S2 (configuration not stated),i,>57
COC(=O)N1CCC[C@@]2(CCN(C(=O)NC(C)C)C2)C1,i,/

# Source: PubChem

# The list is partial (hit frequency here may not be typical).
